SARS PLpro yeast – qHTS of Yeast-based Assay for SARS-CoV PLP; S. cerevisiae expressing SARS-CoV PLpro, growth rescue; control for the full effect not named in the record; AID 485353, 2010; hit rate 0.19% among 330,000; Potency, µM (doses to about 32.9 µM), without a hit: at the top dose activity, positive = growth rescue; active means well fitted rising curve with a large enough effect; inconclusive means small, poorly fitted or top-dose-only effect; inactive means no such curve, though single readings can be large or run the other way; further: 0% is about no effect; nearly all actives have a fitted effect of over 55% in size; growth read by luminescence after 48 h
NS1 function inh – qHTS Assay for Inhibitors of Influenza NS1 Protein Function; S. cerevisiae slowed by influenza A NS1, growth recovery by OD600; Potency, µM (series often up to 46.1 µM), without a hit: at the top dose activity, positive = more growth; AID 2326, 2010; hit rate 0.4% among 270,000; active means well fitted rising curve with a large enough effect; inconclusive means small, poorly fitted or top-dose-only effect; inactive means no such curve, though single readings can be large or run the other way; further: nearly all actives have a fitted effect of over 50% in size
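Read-out: OD600 growth recovery of NS1-expressing budding yeast. Cells grown overnight at 30C in -URA glucose medium, washed, resuspended and diluted 1:100 in 2% galactose assay medium, pH 6.0. Same strain lacking NS1 served as positive control.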
LASV entry inh – qHTS for Inhibitors of binding or entry into cells for Lassa Virus. Lassa virus pseudotype entry inhibition, cell reporter; control for the full effect not named in the record. Potency, µM (series often up to 37.9 µM), for the others: at the top dose activity change, negative = inhibition, usual class: inhibitors. hit rate 1.2% among 300,000. AID 540256, 2011; active means well fitted inhibition curve with a large enough effect; inconclusive means small, poorly fitted or top-dose-only effect, or effect the other way; inactive means flat fitted curve, though single readings scatter; tested in HEK293 cells; further: on the % scale 0 is the no-effect control and ±100 the full control effect; nearly all actives have a fitted effect of over 50% in size; luciferase read-out
StopGo reporter – High Throughput Screening for Foot and Mouth Disease Virus Antivirals. human cells with a luciferase reporter of 2A StopGo recoding; control for the full effect not named in the record. Potency, µM (series often up to 57.9 µM), inactives show top-dose signal change, negative = less light. hit rate 1.2% among 410,000. AID 1159524, 2015; active = well fitted falling curve with a large enough effect; inconclusive = small, poorly fitted or top-dose-only effect; inactive = no such curve, though single readings can be large or run the other way; tested in HEK293T cells; further: on the % scale 0 is the no-effect control and ±100 the full control effect; nearly all actives have a fitted effect of over 45% in size; luciferase light after 4 h
Cruzain noTriton – qHTS Assay for Promiscuous and Specific Inhibitors of Cruzain (without detergent) | purified cruzain, Z-FR-AMC fluorescence, no detergent | Cruzipain (Trypanosoma cruzi), P25779 | hit rate 2.3% among 200,000 | Potency, µM, inactives show max response, negative = inhibition, hits mostly inhibitors;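 further: plate controls were enzyme without inhibitor for no effect and buffer without enzyme for full effect; nearly all actives have a fitted effect of over 40% in size; top concentration of the series not given in the record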
Target sequence (P25779 123-467 limits assumed): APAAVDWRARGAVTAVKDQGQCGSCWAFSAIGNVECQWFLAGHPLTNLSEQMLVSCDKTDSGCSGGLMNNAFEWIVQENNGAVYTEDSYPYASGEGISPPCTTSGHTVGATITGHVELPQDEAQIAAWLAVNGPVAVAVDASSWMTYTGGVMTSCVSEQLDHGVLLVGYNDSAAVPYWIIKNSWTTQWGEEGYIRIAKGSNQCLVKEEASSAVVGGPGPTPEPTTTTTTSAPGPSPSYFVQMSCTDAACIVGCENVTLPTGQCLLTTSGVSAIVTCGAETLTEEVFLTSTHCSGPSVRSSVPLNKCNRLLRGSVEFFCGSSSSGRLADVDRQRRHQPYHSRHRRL
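Purified cruzain at 1.5 nM, pre-incubated 15 min with compound at room temperature in 100 mM sodium acetate pH 5.5, 5 mM DTT, 0.00005% Triton X-100. Reaction started with 2 uM Z-FR-AMC; AMC fluorescence increase over 60 s gives rate.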
RE007 growth inh – qHTS Assay for Inhibitors of the HIV-1 protein Vpr; Potency, µM (titrated, usually from 92.2 µM), without a hit: top-dose activity change, negative = less growth; S. pombe RE007 Vpr strain, BacTiter-Glo ATP luminescence, 24 h; control for the full effect not named in the record; AID 651644, 2012; hit rate 0.21% among 360,000; active = well fitted falling curve with a large enough effect; inconclusive = small, poorly fitted or top-dose-only effect; inactive = no such curve, though single readings can be large or run the other way;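 further: on the % scale 0 is the no-effect control and ±100 the full control effect; nearly all actives have a fitted effect of over 50% in size; the assay follows cell death caused by Vpr and the record does not say whether a fall means rescue or toxicity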
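Fission yeast RE007 carrying one integrated HIV-1 vpr copy, seeded at OD 0.01 in PMG+AL medium with 23 nL pinned compound. Grown 24 h at 30 degrees; viability read by BacTiter-Glo luminescence after 5 min.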
Cruzain Triton – qHTS Assay for Promiscuous and Specific Inhibitors of Cruzain (with detergent); Potency, µM, for the others: max response, negative = inhibition, most hits filed as inhibitors; purified cruzain, Z-FR-AMC fluorescence, 0.01% Triton; hit rate 0.43% among 200,000; Cruzipain (Trypanosoma cruzi), P25779; AID 1478, 2009;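 further: plate controls were neutral wells for no effect and buffer without enzyme for full effect; nearly all actives have a fitted effect of over 40% in size; top concentration of the series not given in the record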
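Sodium acetate buffer (100 mM, pH 5.5) containing 5 mM DTT and 0.01% Triton X-100 hosted 1.5 nM cruzain and test compound for 15 min at room temperature. Cleavage of 2 uM Z-FR-AMC was then tracked by fluorescence.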
Marburg entry inh – qHTS for inhibitors of binding or entry into cells for Marburg Virus; hit rate 1.8% among 300,000; Potency, µM (top dose mostly 37.8 µM), for the others: top-dose activity change, negative = inhibition, hits mostly inhibitors; Marburg virus pseudotyped entry inhibition, cell reporter; control for the full effect not named in the record; about a third of the inactives were read at about 46 µM; active = well fitted inhibition curve with a large enough effect; inconclusive = small, poorly fitted or top-dose-only effect, or effect the other way; inactive = flat fitted curve, though single readings scatter; tested in HEK293 cells; about a fifth of its hits are not listed in these tables; further: on the % scale 0 is the no-effect control and ±100 the full control effect; luciferase read-out
The depositor's hits bear a star; [ ] = remark or other dose. Unless noted, the call rests on the fitted dose curve; in most records, active means well fitted curve in the direction sought with a large enough effect; inconclusive means small, poorly fitted or top-dose-only effect, or another doubt; inactive means no such curve, though single readings can be large; an effect the other way counts as inactive or inconclusive. Potency means the concentration at half of the fitted maximal effect.

`CC(C)CC(=O)NNC(=O)C(C)C` gave SARS PLpro yeast 23%, NS1 function inh 11%, LASV entry inh 12%, StopGo reporter 5%, Cruzain noTriton -10%, RE007 growth inh 2%, Cruzain Triton 0.9% and Marburg entry inh 0%.
`Cc1ccc(S(=O)(=O)NC(C)C(=O)Nc2ccccc2C(=O)N2CCCC2)cc1` (stereo not given) gave SARS PLpro yeast 12%, NS1 function inh inconclusive, LASV entry inh 1%, StopGo reporter 13%, Cruzain noTriton 5%, RE007 growth inh 19%, Cruzain Triton 2.3% and Marburg entry inh -2%.
COC(=O)/C=C/C(=O)N1CCN(c2ccccc2C)CC1 was read as SARS PLpro yeast -9%, NS1 function inh -4%, LASV entry inh -2%, StopGo reporter -19%, Cruzain noTriton 1%, RE007 growth inh 6%, Cruzain Triton 0.0% and Marburg entry inh -15%.
For COC(=O)CCCCCCCCC(O)C[N+]1(C)CCOCC1 (stereo not given) the results were SARS PLpro yeast 1%, NS1 function inh 2%, LASV entry inh 11%, StopGo reporter -4%, RE007 growth inh 4% and Marburg entry inh -2%.
CCCCn1c(=O)c2c(nc3n2CCCN3Cc2ccccc2)n(C)c1=O was read as SARS PLpro yeast 3%, NS1 function inh -1%, LASV entry inh 12%[46.1 µM], StopGo reporter inconclusive, RE007 growth inh -7% and Marburg entry inh 20%[46.1 µM].
`O=C(Nc1ccccc1N1CCN(c2ccc(F)cc2)CC1)C12CC3CC(CC(C3)C1)C2` gave SARS PLpro yeast 1%, NS1 function inh -4%, LASV entry inh inconclusive, StopGo reporter -19%, Cruzain noTriton 25µM*, RE007 growth inh 48%, Cruzain Triton -2.8% and Marburg entry inh -23%.
For CCC(=O)Nc1ccccc1Nc1cc(C#N)c(C#N)cc1[N+](=O)[O-] the results were SARS PLpro yeast 5%, NS1 function inh -2%, LASV entry inh -13%, StopGo reporter -20%, Cruzain noTriton 3%, RE007 growth inh -8%, Cruzain Triton 1.4% and Marburg entry inh -11%[46.1 µM].
For CC(=O)NS(=O)(=O)c1ccc(NC(=O)/C=C/c2ccccc2)cc1 the results were SARS PLpro yeast 0%, NS1 function inh 8%, LASV entry inh -4%[46.1 µM], StopGo reporter 0%, RE007 growth inh 30% and Marburg entry inh 1%[46.1 µM].
`COc1ccccc1NC(=O)CSC(N)=O` gave SARS PLpro yeast -9%, NS1 function inh -12%, LASV entry inh -14%, StopGo reporter -21%, Cruzain noTriton -22%, RE007 growth inh -18%, Cruzain Triton -2.9% and Marburg entry inh 0%.
`COc1ccc(C(=O)O)cc1S(=O)(=O)NCc1cccnc1` gave SARS PLpro yeast 0%, NS1 function inh -3%, StopGo reporter -12% and RE007 growth inh 9%.
Screening Cc1[nH]c2ccccc2c1/C=C/c1nc2ccccc2c(=O)[nH]1 returned SARS PLpro yeast 2%, NS1 function inh 4%, LASV entry inh inconclusive, StopGo reporter 23%, RE007 growth inh 1% and Marburg entry inh inconclusive.
For CC(=O)Nc1nc(C(=O)Nc2c(C)n[nH]c2C)cs1 the results were SARS PLpro yeast 9%, NS1 function inh 1%, LASV entry inh 17%, StopGo reporter 10%, Cruzain noTriton -2%, RE007 growth inh 8%, Cruzain Triton 1.1% and Marburg entry inh 6%.
COc1ccc(Cl)cc1NC(=O)CN(C)C(=O)C1CC(=O)N(Cc2ccc(C)cc2)C1 (stereo not given) was read as LASV entry inh 3%, StopGo reporter -8%, RE007 growth inh -18% and Marburg entry inh -1%[46.1 µM].
`O=C1C2(CCC13COC(c1ccc(O)cc1)OC3)COC(c1ccc(O)cc1)OC2` (stereo not given) gave SARS PLpro yeast 4%, NS1 function inh 0%, LASV entry inh -6%, StopGo reporter inconclusive, Cruzain noTriton 3%, RE007 growth inh -16%, Cruzain Triton -0.3% and Marburg entry inh 1%.
Screening O=C(Cc1ccc(F)cc1)NCCc1csc2nc(-c3ccc(Cl)cc3)nn12 returned LASV entry inh -19%[46.1 µM], StopGo reporter 22%, Cruzain noTriton -11% and Cruzain Triton -1.9%.
CCOC(=O)c1c(N)sc(C(=O)N2CCCCC2)c1C was read as SARS PLpro yeast 8%, NS1 function inh 3%, LASV entry inh -6%, StopGo reporter -11%, Cruzain noTriton 2%, RE007 growth inh -8%, Cruzain Triton -1.0% and Marburg entry inh -6%.
For O=C(c1cccc(C(F)(F)F)c1)N1CCOC12CCN(c1ncc(C(F)(F)F)cc1Cl)CC2 the results were NS1 function inh 7%, LASV entry inh inconclusive, StopGo reporter inconclusive, Cruzain noTriton -5%, RE007 growth inh 25%, Cruzain Triton -1.6% and Marburg entry inh inconclusive.
Screening CC1CCN(C(=O)C2CCCCN2S(=O)(=O)c2cccc([N+](=O)[O-])c2)CC1 (stereo not given) returned SARS PLpro yeast 1%, NS1 function inh 0%, StopGo reporter -2% and RE007 growth inh -3%.
`CCc1cc(-c2nc(N)ncc2-c2ccc(Br)cc2)c(O)cc1OC` gave SARS PLpro yeast 1%, NS1 function inh -1%, LASV entry inh inconclusive, StopGo reporter -3%, RE007 growth inh -8% and Marburg entry inh -21%.
For NS(=O)(=O)c1ccc(NC(=O)COC(=O)COc2ccc(Br)cc2)cc1 the results were SARS PLpro yeast -1%, NS1 function inh 5%, StopGo reporter -16% and RE007 growth inh -2%.
`CCOc1ncccc1C(=O)Nc1ccccc1F` gave SARS PLpro yeast 1%, NS1 function inh -7%, LASV entry inh 10%, StopGo reporter 33%[activator], RE007 growth inh -16% and Marburg entry inh 3%[46.1 µM].
For CCCCN(C(=O)Cc1ccc2c(c1)OCCO2)c1c(N)n(CC(C)C)c(=O)[nH]c1=O the results were SARS PLpro yeast 0%, LASV entry inh -1%, StopGo reporter -9%, RE007 growth inh -3% and Marburg entry inh 14%.
`CC1Cc2nc(SCC(=O)c3ccccc3)n(Cc3ccccc3)c(=O)c2S1` (stereo not given) gave SARS PLpro yeast -9%, NS1 function inh 8%, StopGo reporter 15%, Cruzain noTriton inconclusive, RE007 growth inh 4% and Cruzain Triton -5.5%.
Screening COc1cc(C2CC(c3cccnc3)=NN2c2ccc(F)cc2)cc(OC)c1OC (stereo not given) returned SARS PLpro yeast 2%, NS1 function inh -40%, StopGo reporter -14% and RE007 growth inh 19%.
CCCCc1ccc(NC(=O)c2ccc3c(c2)CCN3S(=O)(=O)CC)cc1 was read as LASV entry inh inconclusive, StopGo reporter -6%, Cruzain noTriton 22%, Cruzain Triton -2.7% and Marburg entry inh 1%[46.1 µM].
Screening Cc1ccc(NC(=O)CSCc2cc(=O)c3ccccc3[nH]2)c(C)c1 returned LASV entry inh 8%[46.1 µM], StopGo reporter -26%, Cruzain noTriton -22% and Cruzain Triton -5.1%.
CC(=O)c1c(N2CCN(Cc3ccccc3)CC2)[nH]c(-c2ccccc2)nc1=S was read as SARS PLpro yeast 22%, NS1 function inh 0%, LASV entry inh -4%, StopGo reporter -15%, Cruzain noTriton 10µM*, RE007 growth inh -2%[3.69 µM], Cruzain Triton -11% and Marburg entry inh -4%.
Screening CCSc1nnc(-c2ccc(C)cc2)c2ccccc12 returned SARS PLpro yeast -2%, NS1 function inh -16%, LASV entry inh inconclusive, StopGo reporter 0%, Cruzain noTriton -10%, RE007 growth inh -16%, Cruzain Triton -2.8% and Marburg entry inh inconclusive.
`CCc1ccc(CNCCc2ccc(F)cc2)cc1` gave SARS PLpro yeast 8%, NS1 function inh 7%, LASV entry inh inconclusive, StopGo reporter -24%, Cruzain noTriton -8%, RE007 growth inh 7%, Cruzain Triton 0.3% and Marburg entry inh inconclusive.
For Cc1onc(-c2c(Cl)cccc2Cl)c1C(=O)N/N=C(\N)COc1ccc(Cl)cc1 the results were SARS PLpro yeast inconclusive, NS1 function inh -15%, LASV entry inh -2%, StopGo reporter inconclusive, Cruzain noTriton -3%, RE007 growth inh -7%, Cruzain Triton 0.7% and Marburg entry inh inconclusive.
Screening COc1ccc(OCC(=O)Nc2cc(S(=O)(=O)N3CCCC3)ccc2Cl)cc1 returned SARS PLpro yeast 1%, LASV entry inh -14%, StopGo reporter 0%, RE007 growth inh 8% and Marburg entry inh -9%.
For CCOc1ccccc1/C=C/c1onc(C)c1S(=O)(=O)N1CCC(C(=O)N2CCCCCC2)CC1 the results were SARS PLpro yeast 5%, NS1 function inh 28%, StopGo reporter -10% and RE007 growth inh 3%.
`CC1(NS(=O)(=O)c2ccc(Cl)s2)CCS(=O)(=O)C1` (stereo not given) gave SARS PLpro yeast 1%, LASV entry inh 4%, StopGo reporter 6%, RE007 growth inh 36% and Marburg entry inh -4%.
`COC(=O)CN1C(=O)[C@H]2[C@@H](c3ccc(C)o3)N3C(=O)CN(CCO)C(=O)[C@@]3(C)[C@H]2C1=O` gave SARS PLpro yeast -1%, NS1 function inh 16%, StopGo reporter -20% and RE007 growth inh 1%.
`Cn1c(=O)c(C(=O)Nc2ncccn2)c(O)c2ccccc21` gave SARS PLpro yeast -6%, NS1 function inh -118%, LASV entry inh 4%, StopGo reporter 1%, Cruzain noTriton -7%, RE007 growth inh inconclusive, Cruzain Triton 1.5% and Marburg entry inh 17%.
Screening COCCNC(=O)C(c1ccc(C)cc1)N(C(=O)CCC(=O)Nc1ccccn1)c1ccccc1C (stereo not given) returned SARS PLpro yeast 4%, NS1 function inh -5%, LASV entry inh -1%, StopGo reporter -7%, RE007 growth inh 2% and Marburg entry inh inconclusive.

Screening results: PubChem BioAssay, National Center for Advancing Translational Sciences (NCATS)
